# Rv3671c inh – inhibitors of M. tuberculosis serine protease Rv3671c; P9WHR9; inhibition, % at 5.96 µM; actives 0.048% (n = 320,000); in the data active = inhibition above about 38%;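 note: extracellular domain of Rv3671c used as enzyme; 0% = enzyme with DMSO and 100% = no enzyme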
# Target sequence (P9WHR9 whole entry, looked up, the tested form may be a part): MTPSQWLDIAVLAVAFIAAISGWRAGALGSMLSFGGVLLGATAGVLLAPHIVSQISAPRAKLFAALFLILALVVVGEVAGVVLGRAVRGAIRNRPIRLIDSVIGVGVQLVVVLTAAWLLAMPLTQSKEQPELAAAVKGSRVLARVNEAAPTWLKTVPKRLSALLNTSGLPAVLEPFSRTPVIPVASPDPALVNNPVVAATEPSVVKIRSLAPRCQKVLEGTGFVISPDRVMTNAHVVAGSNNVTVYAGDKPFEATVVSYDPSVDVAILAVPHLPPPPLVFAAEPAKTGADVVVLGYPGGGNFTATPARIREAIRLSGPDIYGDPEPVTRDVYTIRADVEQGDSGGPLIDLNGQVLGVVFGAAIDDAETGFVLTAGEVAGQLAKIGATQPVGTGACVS
# PrPC TRFRET – cell surface PrPC inhibition, primary TR-FRET screen; actives 0.43% (n = 370,000); TR-FRET read-out; inhibition, % at 13.8 µM; P04156; AID 720596; in the data active = inhibition above about 24%; note: 0% = median of the test wells and 100% = reference compound wells
# BoNT F protease – BoNT F light chain protease inhibition; Multiplex microsphere protease cleavage assay, flow cytometry; inhibition, % at 10 µM; actives 0.22% (n = 360,000); AID 588497; in the data active = inhibition above about 35%, passing the limit was not always enough; inconclusive = no clear call, values can overlap the other calls; note: plate controls were buffer without enzyme for full effect and enzyme alone for no effect
# FadD28 FP inh – inhibitors of Mycobacterium tuberculosis FadD28 bisubstrate binding; inhibition, % at 12.5 µM; actives 0.22% (n = 360,000); FadD28 bisubstrate probe binding, fluorescence polarization; in the data active = inhibition above about 8.5%, passing the limit was not always enough; inconclusive = no clear call, values can overlap the other calls
# Mtb BioA inh – BioA (M. tuberculosis) enzyme inhibition. purified M. tuberculosis BioA enzyme, plate reader. inhibition, % at 9.99 µM. actives 0.096% (n = 360,000); in the data active = inhibition above about 40%; inconclusive = no clear call, values can overlap the other calls
# GDH-TPI inh – GDH-TPI coupled enzyme inhibition counter-screen; GDH-TPI coupled enzyme counterscreen, NADH absorbance; inhibition, % at 4.8 µM; actives 1.2% (n = 360,000); in the data active = inhibition above about 30%;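 note: 0% = DMSO wells and 100% = wells lacking the enzyme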
# UGM FP inh – blocks M. tuberculosis UGM enzyme | P9WIQ1 | purified UGM, fluorescence polarization probe displacement | inhibition, % at 10 µM | actives 0.06% (n = 320,000) | AID 504406; in the data active = inhibition above about 10%, passing the limit was not always enough; inconclusive = no clear call, values can overlap the other calls
# Target sequence (P9WIQ1 whole entry, looked up): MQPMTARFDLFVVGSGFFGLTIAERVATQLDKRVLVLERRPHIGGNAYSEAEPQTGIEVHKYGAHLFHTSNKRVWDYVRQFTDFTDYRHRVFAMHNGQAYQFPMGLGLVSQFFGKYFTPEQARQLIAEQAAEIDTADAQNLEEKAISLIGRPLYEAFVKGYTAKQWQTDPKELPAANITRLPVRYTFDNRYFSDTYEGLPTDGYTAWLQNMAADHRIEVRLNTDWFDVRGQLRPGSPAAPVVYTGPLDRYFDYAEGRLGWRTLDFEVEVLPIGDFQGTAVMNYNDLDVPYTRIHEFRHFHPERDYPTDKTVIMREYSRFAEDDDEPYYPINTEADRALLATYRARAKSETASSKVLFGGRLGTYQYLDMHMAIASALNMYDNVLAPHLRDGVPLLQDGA
# Active calls of the source: *; ? = inconclusive; · = not tested or not shown.
SMILES,Rv3671c inh,PrPC TRFRET,BoNT F protease,FadD28 FP inh,Mtb BioA inh,GDH-TPI inh,UGM FP inh
CC1C/C(=N/O)C(C)CN1 (stereo unspecified),8,2,-2,-4.1,-0.8,-14,-1.6
CCCNC(=O)c1ccccc1NC(=O)COc1ccc(OC)cc1,-7,4,0,-3.0,-1.5,2,0.7
CCC(C)C(NC(=O)OC(C)(C)C)C(=O)NCc1ccco1 (stereo unspecified),2,-2,12,0.5,1.7,8,0.8
CCc1nnc(NS(=O)(=O)c2ccc(NS(=O)(=O)c3ccccc3[N+](=O)[O-])cc2)s1,-3,4,18,·,-0.9,9,1.2
CCN1CCN(C(=O)NCc2ccccc2)CC1,4,3,6,-2.1,-2.5,2,-1.8
O=C(O)c1ccc2c(c1)CC(c1ccccc1)OC2=O (stereo unspecified),3,2,-7,-4.4,0.3,1,1.3
COc1ccc(CN2CCN(Cc3nc4ccccc4s3)CC2CCO)c(C)c1C (stereo unspecified),-7,5,0,-4.3,·,-9,1.6
CCN1CCN(C(=O)CS(=O)Cc2nc(-c3ccc(OC)cc3)oc2C)CC1 (stereo unspecified),6,-9,-4,0.4,-0.9,5,1.5
COc1ccccc1NC(=O)CSc1nccc(=O)[nH]1,0,·,-5,-2.6,0.4,-3,-0.6
Cc1cccc(C(=O)NCCC(=O)Nc2ccc(C)c(F)c2)c1,-9,9,-1,-1.0,-0.9,-2,1.8
O=C(NCc1ccccc1Cl)c1ccccc1Oc1ccccc1,-4,-10,-1,-1.3,·,2,-2.1
O=C(NCc1ccc(F)cc1)C(=O)c1cn(CC(=O)N2CCCC2)c2ccccc12,-10,2,-7,-1.2,-1.3,16,1.7
CCOC(=O)c1cnc2[nH]c3ccccc3n2c1=O,-1,1,3,-2.0,·,10,3.4
CC1CCN(c2oc(-c3ccccc3F)nc2C#N)CC1,0,7,0,0.5,-2.4,24,-0.6
COCCN(C(=O)COC(=O)c1ccccc1Cc1ccccc1)c1c(N)n(Cc2ccccc2)c(=O)[nH]c1=O,-10,-4,·,-5.3,1.0,2,1.6
Cc1ccnc(NC(=O)CCC(=O)N(CC(=O)NC(C)(C)C)c2ccc3c(c2)OCO3)c1,0,7,-5,-3.7,-1.6,4,0.5
N=c1c2c(-c3ccccc3)c(-c3ccccc3)n(Cc3ccccc3)c2ncn1CCCO,1,-30,-5,-3.5,18,4,0.1
Cc1nc(COc2cc3oc(=O)cc(C)c3cc2Cl)cs1,-21,-3,20,-4.0,-0.4,9,-0.5
CNCCC(Oc1ccc(C(F)(F)F)cc1)c1ccccc1 (stereo unspecified),7,-6,-9,-4.0,-1.4,0,-1.9
O=C(O)c1ccc(Cl)c(S(=O)(=O)Nc2ccccc2N2CCOCC2)c1,3,-3,-3,0.1,·,11,1.2
COc1ccc(C2CC(=O)c3cnc(NC(=O)c4cccc(OC)c4)nc3C2)cc1 (stereo unspecified),0,2,4,-3.3,-1.2,7,-1.8
O=C(CNC(=S)N(CCCN1CCOCC1)Cc1cccs1)NCc1ccccc1,5,-9,-1,-1.8,-1.0,2,-0.6
CC(C)C(=O)N1CCN(C2=NS(=O)(=O)c3ccccc32)CC1,-5,-3,-4,-2.3,-0.7,-9,2.3
Cc1ccc(NC(=O)CN(C)C(=O)CNC(=O)c2cccs2)cc1,-3,1,-5,-0.3,-1.3,-4,-0.5
O=C(Nc1nc2ccccc2n1CCN1CCOCC1)c1ccc(Cn2cc([N+](=O)[O-])cn2)o1,1,5,-5,1.6,-4.9,48*,-1.2

# 7 records picked at random from those above, as already listed:
SMILES,Rv3671c inh,PrPC TRFRET,BoNT F protease,FadD28 FP inh,Mtb BioA inh,GDH-TPI inh,UGM FP inh
COc1ccccc1NC(=O)CSc1nccc(=O)[nH]1,0,·,-5,-2.6,0.4,-3,-0.6
CCCNC(=O)c1ccccc1NC(=O)COc1ccc(OC)cc1,-7,4,0,-3.0,-1.5,2,0.7
O=C(O)c1ccc2c(c1)CC(c1ccccc1)OC2=O (stereo unspecified),3,2,-7,-4.4,0.3,1,1.3
O=C(NCc1ccccc1Cl)c1ccccc1Oc1ccccc1,-4,-10,-1,-1.3,·,2,-2.1
O=C(NCc1ccc(F)cc1)C(=O)c1cn(CC(=O)N2CCCC2)c2ccccc12,-10,2,-7,-1.2,-1.3,16,1.7
CCN1CCN(C(=O)CS(=O)Cc2nc(-c3ccc(OC)cc3)oc2C)CC1 (stereo unspecified),6,-9,-4,0.4,-0.9,5,1.5
CC(C)C(=O)N1CCN(C2=NS(=O)(=O)c3ccccc32)CC1,-5,-3,-4,-2.3,-0.7,-9,2.3

# Additional entries follow.
SMILES,Rv3671c inh,PrPC TRFRET,BoNT F protease,FadD28 FP inh,Mtb BioA inh,GDH-TPI inh,UGM FP inh
CCOc1cc(C2C(C(=O)c3ccco3)=C(O)C(=O)N2CC2CCCO2)ccc1O (stereo unspecified),2,0,2,·,-0.1,3,0.9
O=S(=O)(c1ccc(Cl)cc1)N1CC1c1ccccc1 (stereo unspecified),-11,-3,-6,0.0,·,8,-3.7
O=C(Cn1cnc2c(cnn2-c2ccccc2)c1=O)Nc1ccc(S(=O)(=O)N2CCOCC2)cc1,-7,6,0,-3.2,-5.6,6,2.6
CC(C(=O)NN=C(c1ccccc1)c1ccccc1)N1CCCC1 (stereo unspecified),-11,-3,2,0.1,·,0,5.7
Cc1ccc(NC(=O)Cn2nc(C)c3ccccc3c2=O)cc1F,-8,-4,2,-3.8,·,-7,-0.1
Cc1ccc(NC(=O)C2CCC2)cc1S(=O)(=O)N1CCCCCC1,-4,-10,0,-4.6,-1.1,-6,-1.5
COC(CNC(=O)c1ccc(N2CCCC2=O)cc1)OC,-5,0,12,0.8,·,-4,3.2
O=C(Nc1nc2ccccc2c(=O)s1)c1ccco1,0,-1,?,-0.9,-0.8,9,0.8
CCN(CC)CC#CCOC(=O)C(O)(c1ccccc1)C1CCCCC1 (stereo unspecified),1,1,-4,-0.9,0.3,4,2.9
COc1ccc(C(=O)NCC(=O)N2CCCC(C(F)(F)F)C2)cc1OC (stereo unspecified),2,-5,6,-2.7,0.6,-1,-0.8
CCOCCCNC(=S)NCCCNc1nc2c(C)c(C)ccc2cc1C#N,·,-6,-5,-1.8,-1.3,2,·
CSC1=C(C#N)C(c2ccccc2Cl)C(C(C)=O)=C(C)N1 (stereo unspecified),8,-1,1,-1.9,5.6,2,0.4
Cc1ccc(NCC(O)C(O)C(O)CO)c(N=Nc2ccccc2)c1C (stereo unspecified),20,-8,-11,-0.3,·,19,0.6
O=C(Oc1ccccc1)c1c(Cl)cccc1P(=O)(O)O,0,-3,3,-1.2,·,1,-0.2
CCc1ccc(Oc2coc3cc(OCC(=O)Nc4cc(C)ccc4C)ccc3c2=O)cc1,-10,2,-1,-0.6,0.5,9,-0.2
CCOC(=O)c1cc(CC)sc1/N=C/C1C(=O)NC(=S)NC1=O,-8,-1,5,-0.7,-2.1,5,-2.7
CC(=O)N1N=C(c2ccncc2)OC1(Cc1ccccc1)Cc1ccccc1,-6,-5,2,-0.9,·,3,2.0
CCc1ccc(OCc2nnc(SCc3ccc(C(=O)O)cc3)o2)cc1,4,-2,2,-2.5,1.1,11,-2.8
O=C(Cn1ncc2c1-c1ccccc1OC2)N1CCc2ccccc21,-9,2,-3,-2.5,0.0,4,0.3
Cc1ccnc(SCC(=O)Nc2sc3c(c2C#N)CCC(C(C)(C)C)C3)n1 (stereo unspecified),3,0,-1,-2.8,8.7,-16,-2.6
CCOC(=O)c1ccc(NC(=O)CSc2nc3c(c(=O)n2CC)SC(C)C3)cc1 (stereo unspecified),-3,3,-3,-3.0,0.1,15,0.0
CCC[C@@H]1C[C@@H](C(=O)N[C@@H](C2O[C@H](SC)[C@H](O)[C@@H](O)[C@H]2O)[C@H](C)Cl)N(C)C1 (stereo partly specified),-2,·,4,-0.5,-1.0,-13,-3.7
O=C1OCC(c2ccccc2)=C1c1ccccc1,3,3,-7,-1.5,0.0,1,-1.1
CCCc1cc(C(=O)N2CCCC(C(=O)c3ccc(Cl)cc3)C2)n(C)n1 (stereo unspecified),-3,2,-6,-0.6,0.6,10,-0.3
CCCCn1c(N)c(N(Cc2ccccc2OC)C(=O)CN2C(=O)NC3(CCCC3)C2=O)c(=O)[nH]c1=O,-1,6,-5,0.6,-2.1,7,-0.5

# Whole records from above. Order of values: Rv3671c inh | PrPC TRFRET | BoNT F protease | FadD28 FP inh | Mtb BioA inh | GDH-TPI inh | UGM FP inh
# `CCCc1cc(C(=O)N2CCCC(C(=O)c3ccc(Cl)cc3)C2)n(C)n1` (stereo unspecified) is listed as -3 | 2 | -6 | -0.6 | 0.6 | 10 | -0.3
# `CCOC(=O)c1cc(CC)sc1/N=C/C1C(=O)NC(=S)NC1=O` is listed as -8 | -1 | 5 | -0.7 | -2.1 | 5 | -2.7

# (cont.)
SMILES,Rv3671c inh,PrPC TRFRET,BoNT F protease,FadD28 FP inh,Mtb BioA inh,GDH-TPI inh,UGM FP inh
CC1(C)N=C(SCC(=O)Nc2ccccc2)C(c2ccc(Cl)cc2)=N1,4,14,13,-20,0.3,10,1.3
Nc1nonc1-n1nnc(C(=O)N/N=C/c2ccc(OCc3ccc(F)cc3)cc2)c1COc1ccccc1,-20,2,3,-0.2,-1.3,20,4.4
C=CC[C@]12C=C(OC)C(=O)C=C1O[C@@H](c1ccc3c(c1)OCO3)[C@H]2C,-14,-3,-1,-1.0,1.8,-2,2.2
CCc1ccc(OCC(=O)NC(=S)Nc2ccc(C(=O)O)cc2)cc1,1,7,-1,0.5,-1.7,1,-2.2
Cc1cccc(NC(=O)COC(=O)c2n[nH]c3ccccc23)c1C,-6,9,-2,-0.9,-0.2,7,2.4
COc1ccccc1NS(=O)(=O)c1cc(C(=O)N2CC(C)CC(C)C2)ccc1C (stereo unspecified),-1,3,2,-0.9,-0.2,7,-3.2
COc1ccc2cc(CN(CCO)C(=O)c3ccc(Br)cc3)c(=O)[nH]c2c1,·,5,-1,-3.7,0.8,21,·
Cc1ccc(C(=O)CCC(=O)Nc2cccc(C(F)(F)F)c2)cc1,-7,-1,1,-2.6,-1.1,-3,0.5
COc1ccc(Cl)cc1NC(=O)C[n+]1cccc(C)c1,6,3,-5,-2.0,-0.7,7,1.0
O=C(Nc1cccnc1)c1cccc(F)c1,-5,4,-14,-0.7,·,2,1.4
O=C(C(Cc1ccccc1)N1C(=O)C2C3C=CC(C3)C2C1=O)N1CCCCCC1 (stereo unspecified),-10,-1,-12,-0.6,-5.1,13,3.8
COC(=O)c1ccc(N=C2S/C(=C\c3cc(C)n(-c4cccnc4)c3C)C(=O)N2C)cc1,0,-3,-3,-0.9,-1.4,13,-0.1
COc1cccc(NC(=O)N(C2CCCCC2)C(C)c2cccs2)c1 (stereo unspecified),2,14,9,-1.1,2.2,-2,0.4
CNCC[C@@H](Oc1ccc(C(F)(F)F)cc1)c1ccccc1,7,-5,-26,-5.7,1.0,-14,1.4
CC/C(=N\n1nnnc1Nc1ccccc1)c1ccccc1,-3,1,0,-1.8,·,-7,2.2
COc1cccc(OCc2cc(C(=O)N(C)CCOc3ccc(C)cc3)no2)c1,-13,6,-4,?,0.1,4,0.6
CSc1ccccc1NC(=O)c1cc(CC(C)C)on1,0,10,-6,0.8,-5.6,9,2.2
O=c1c(-c2ccccc2)coc2cc(O)ccc12,10,-2,-4,-1.9,-1.0,27,-1.3
O=C(c1cccnc1)N1CCN(Cc2cccc(F)c2)CC1,-1,7,13,-2.6,1.1,1,-0.1
CC(=O)Nc1nc(CCN2C(=O)c3ccccc3C2=O)cs1,3,4,-2,-2.8,·,12,-1.2
CC1CCc2c(nc3ncnn3c2Nc2ccc(OC(F)(F)F)cc2)C1 (stereo unspecified),7,9,?,-1.0,0.5,9,-2.3
COc1cccc(C2=NOC(C(=O)NC(C)C)C2)c1 (stereo unspecified),5,-3,-4,0.4,-1.3,12,0.3
Cc1cc2cc3n(c2nn1)N=C(Cl)CC3,·,-30,4,-0.4,1.9,9,·
C/C(=N/OC(=O)c1ccccc1)c1oc(C)nc1C,5,-3,?,-3.5,-0.4,-14,-0.7
COc1cc2[nH]c(C(=O)N3CC(C)OC(C)C3)cc2c(OC)c1OC (stereo unspecified),-3,0,-11,1.7,0.6,2,-1.7
O=C(Nc1ccccc1)c1ccccc1NS(=O)(=O)c1ccc(Cl)s1,-7,12,-15,-0.8,4.0,10,-0.7
COc1ccccc1NS(=O)(=O)c1cc(NC(=O)CCNC(C)=O)ccc1C,0,-1,-3,-2.2,-0.7,6,2.1
CCOc1ccc(C2C(C(=O)c3ccc(C)o3)=C(O)C(=O)N2Cc2cccnc2)cc1 (stereo unspecified),-15,1,-2,0.2,1.3,21,5.9
Cc1nnc(SCC(=O)NCc2cccs2)[nH]c1=O,-2,0,2,-1.0,0.8,9,-1.7
CC(C)(C)NC(=O)CON=C1c2ccccc2-c2ccccc21,2,7,20,-1.8,-0.5,-1,-0.1

# These rows are one share of the data; rates above refer to the full screens.
